Source: PubChem BioAssay (National Center for Advancing Translational Sciences (NCATS))
Rango-impB inh – inhibitors of Rango-importin beta complex formation. Potency, µM (series often up to 92.2 µM), without a hit: top-dose inhibition of complex formation. AID 540263. Rango CFP/YFP FRET sensor + importin beta, 45 min. 0.031% of 340,000 active; active = rising FRET ratio curve, often small or poorly fitted; inconclusive = mostly compound fluorescence or quenching in the first reads; inactive = flat curves in all reads;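 further: potency means the concentration at half of the fitted maximal effect; 0% = DMSO wells and 100% = buffer wells lacking importin beta; nearly all actives have a fitted effect of over 15% in size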
Target sequence (Q14974 whole entry, looked up): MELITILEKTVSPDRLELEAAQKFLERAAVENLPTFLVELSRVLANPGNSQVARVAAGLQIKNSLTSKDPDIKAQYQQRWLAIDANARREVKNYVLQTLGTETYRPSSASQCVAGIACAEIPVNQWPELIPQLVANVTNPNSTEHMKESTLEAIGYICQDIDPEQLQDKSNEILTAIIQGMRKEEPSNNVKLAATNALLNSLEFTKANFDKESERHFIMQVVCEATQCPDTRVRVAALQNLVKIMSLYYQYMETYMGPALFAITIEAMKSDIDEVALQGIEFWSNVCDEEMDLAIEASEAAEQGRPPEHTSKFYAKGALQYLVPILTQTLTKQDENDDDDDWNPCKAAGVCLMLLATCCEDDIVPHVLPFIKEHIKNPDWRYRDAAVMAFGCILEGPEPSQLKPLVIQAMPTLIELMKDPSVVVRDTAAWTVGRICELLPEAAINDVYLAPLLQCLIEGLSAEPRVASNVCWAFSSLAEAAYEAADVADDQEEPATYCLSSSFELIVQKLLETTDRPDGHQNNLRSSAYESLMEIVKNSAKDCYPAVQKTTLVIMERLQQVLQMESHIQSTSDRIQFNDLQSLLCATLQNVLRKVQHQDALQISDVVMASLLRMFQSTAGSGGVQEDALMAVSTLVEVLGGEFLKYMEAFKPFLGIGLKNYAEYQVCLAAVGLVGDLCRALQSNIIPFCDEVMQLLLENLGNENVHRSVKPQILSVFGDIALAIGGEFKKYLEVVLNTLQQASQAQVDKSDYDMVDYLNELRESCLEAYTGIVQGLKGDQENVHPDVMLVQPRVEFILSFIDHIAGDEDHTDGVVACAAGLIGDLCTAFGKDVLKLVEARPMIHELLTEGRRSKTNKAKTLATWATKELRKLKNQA
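FRET biosensor Rango (snurportin 1 IBB between N-terminal EYFP and C-terminal Cerulean), 50 nM in PBS/1 mM DTT/0.02% Tween-20/0.1% BSA, preincubated 5 min RT with compound; 0.125 microM importin beta added, 45 min RT, CFP/YFP FRET ratio read.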
Rango dissoc inh – inhibition of RanGTP-driven Rango-importin beta dissociation. 0.071% of 340,000 active. O95149+P62826. Potency, µM (titrated, usually from 46.1 µM), for inactives: top-dose activity change, negative = inhibition. Biochemical FRET Rango-importin beta, RanGTP-induced dissociation; active means falling FRET ratio curve, often poorly fitted, with flat reads before Ran was added; inconclusive means other falling curves, or compound fluorescence or quenching; inactive means flat or rising ratio curve;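 further: potency means the concentration at half of the fitted maximal effect; % of control where 0% means no effect; nearly all actives have a fitted effect of over 45% in size; -100% = wells without RanGTP and RCC1; the record marks most hits as doubtful in a second field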
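FRET read at 45 min, room temperature: inhibitors block the CFP/YFP signal rise when RanGTP (0.6 uM Ran, 2 mM GTP, 0.2 uM RCC1) frees Rango (0.1 uM) from importin beta (0.25 uM). Pre-read after 5 min compound exposure flags interference.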
miR-21 FLuc – miR-21 reporter, rising signal | Potency, µM (series often up to 38.3 µM), for the others: top-dose reporter change, positive = more light | HeLa miR-21 FLuc reporter, luciferase, 48 h | 340,000 tested, under 10 active; active = well fitted rising curve with a large enough effect; inconclusive = small, poorly fitted or top-dose-only effect; inactive = no such curve, though single readings can be large or run the other way;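 further: % of control where 0% means no effect; miR-21 action dims this reporter so a rising signal means less miR-21 action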
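Compounds were titrated across several concentrations (up to approximately 40 uM) and incubated 48 hours with HeLa miR-21-FLuc reporter cells (miR-21 target sequence downstream of FLuc, endogenous miR-21). Readout was firefly luciferase luminescence after lytic detection reagent.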
GLA inh pH 4.5 – inhibitors of human alpha-galactosidase A at pH 4.5. purified enzyme, 4-MU-alpha-Gal fluorescence, pH 4.5. activity change, negative = inhibition, % at 105 µM. 230,000 tested, under 10 active. AID 1467; inconclusive = small, poorly fitted or top-dose-only inhibition, or a rising curve; inactive = flat fitted curve, though single readings scatter; no compound was filed as active;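 further: 0% = full activity with enzyme and -100% = basal without enzyme; dose as in the result columns while the protocol names 77 µM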
* marks the source's active call; other numbers are inactive results; ? = inconclusive; . = not tested or not shown; & = joins results of further samples.

SMILES | Rango-impB inh | Rango dissoc inh | miR-21 FLuc | GLA inh pH 4.5
COC(=O)c1c(NC(=O)CN2C(=O)NC3(CCCCC3C)C2=O)sc2c1CCC2 (centres undefined) | 0.2% | -4% | . | .
Cc1ccc(OCCOC(=O)CN2C(=O)NC3(CCCC3)C2=O)cc1 | 5.0% | -4% | . | .
NC(CO)C(O)c1ccc([N+](=O)[O-])cc1 (centres undefined) | 4.0% | 14% | 3% | .
COc1cccc(CNC(=O)C(C(=O)NCc2cccc(OC)c2)c2ncc(C(F)(F)F)cc2Cl)c1 | 0.3% | 17% | -6% | -1
NC(=O)CSc1nc2cccnc2n1-c1ccc(F)cc1 | 0.0% | -11% | -1% | .
CCCCc1cc2c(s1)CCCC/C2=N/O | -3.1% | -20% | -27% | -4
CCOc1ccc(C(=O)NCC(=O)OCc2ccc(F)cc2Cl)cc1 | 1.6% | -8% | 0% | -5
COc1ccc(Cl)cc1NC(=O)c1sc2nc(C)nc(N3CCOCC3)c2c1C | 4.6% | 7% | -1% | .
CS(=O)(=O)N(Cc1ccc(Cl)cc1)c1ccc(C(=O)NCCSc2ccccn2)cc1 | 2.4% | -7% | 9% | 0
O=S1(=O)c2c(F)cccc2OC(COCc2ccccc2)CN1C1CCCC1 (centres undefined) | 3.4% | 8% | . | .
O=C(CNC(=O)Cc1ccc(Cl)cc1)NCC(=O)N1CCCCC1 | 5.4% | -10% | 0% | .
COc1ccc(C2CC(C(F)(F)F)n3nc(C(=O)O)cc3N2)cc1 (centres undefined) | -3.3% | 8% | -11% | -5
C=CCOc1ccc(/C=N/N2C(=O)C(CC(=O)Nc3ccc(F)cc3F)SC2=NC)cc1 (centres undefined) | ? | ? | -32% | -14
O=C(NC1CC(=O)N(c2ccccc2)C1)C(=O)c1c[nH]c2ccccc12 (centres undefined) | -0.2% | -3% | . | .
CC(O)C(O)C(O)C(O)/C=N/NC(=O)c1ccccc1 (centres undefined) | -2.1% | -1% | -47% | 6
COc1ccc(NC(=S)NCCCN2CCCC2)cc1Cl | ? | -13% | 3% | 9
CC1CCC(NC(=O)c2nn(C)c3c2CS(=O)(=O)c2ccccc2-3)CC1 (centres undefined) | 0.1% | 1% | 0% | .
O=C(NC1CCCCC1)N(C1=NCCCCC1)c1ccc(Br)cc1 | -1.0% | -8% | -27% | 2
CCOC(=O)c1ccc(CC(=O)c2ccc(O)cc2O)o1 | ? | -20% | 18% | 0
CC(CCc1ccco1)N(C)S(=O)(=O)c1csc(C(N)=O)c1 (centres undefined) | 4.6% | 2% | 3% | .
COC(=O)c1cc(Cl)c(NC(=O)/C=C/c2ccc(OC)cc2)cc1OC | -0.5% | 28% | -4% | 7
CSc1ccc(OCC(=O)Nc2ccc(N3CCOCC3)c(Cl)c2)cc1 | 0.8% | 1% | -2% | .
CC1C(=O)Nc2ccccc2N1C(=O)C1CC1 (centres undefined) | ? | -15% | 0% | 7
Cc1c(C(=O)c2ccccc2C(=O)O)sc2ccccc12 | -4.0% | 2% | 0% | .
CCN(c1ccccc1)S(=O)(=O)c1cc(CN2C(=O)c3cccnc3C2=O)ccc1OC | 4.8% | 15% | -2% | .
CCC(=O)Nc1ccc2c(c1)nc(CCN1CCC(C)CC1)n2C | 0.7% | -4% | -3% | .
CCOC(=O)c1[nH]c2ccc(Br)cc2c1NC(=O)CCN1CCOCC1 | 6.0% | -8% | -6% | -1
Cc1ccccc1S(=O)Cc1ccc(C(=O)NC2CCN(Cc3ccccc3)CC2)o1 (centres undefined) | -0.2% | 0% | 2% | .
CCN1/C(=C/C(C)=C/c2sc3ccccc3[n+]2CC)Sc2ccccc21 | -0.4% | -8% | ? | 5
CC(C)(C)c1ccc(/C=C(\c2nc3ccccc3[nH]2)S(=O)(=O)c2ccccc2)cc1 | 1.5% | -22% | . | .
Cc1cccc(-c2noc(CCCC(=O)Nc3ccc(C(N)=O)cc3)n2)c1 | -1.4% | 1% | 1% | -4
CCn1cc(C(=O)O)c(=O)c2cc(F)c(N3CCN(C(=S)NC(=O)c4c(OC)cccc4OC)CC3)cc21 | -2.2% | -1% | -25% | .
COc1cccc(-n2c(C)c(C(C)=O)c(C(C)=O)c2C)c1 | 1.2% | -5% | 3% | -2
CCOC(=O)CNc1nc(-c2ccncc2)nc2ccccc12 | ? | -18% | 0% | -4
CCc1nc(NCCO)c(C#N)c2c1CCCC2 | 3.1% | -7% | 3% | 0
O=C(Nc1cccc(C(F)(F)F)c1)Oc1ccccc1N1CCOCC1 | 2.0% | 17% | 2% | -23
Cc1ccc(C(=O)N/C(=C/c2ccc(-c3cccc([N+](=O)[O-])c3)o2)C(=O)NC(C)(C)C)cc1 | -1.8% | -1% | -2% | -3
O=C(/C=C/c1ccc2c(c1)OCO2)Nc1c(C(=O)O)[nH]c2ccccc12 | ? | 10% | -3% | -8
FC(F)(F)c1cccc(Cc2noc(CN3CCC(c4ccncc4)CC3)n2)c1 | -0.5% | 10% | 25% | -2
c1cncc(Oc2cccc(Oc3cccnc3)c2)c1 | 4.1% | 0% | -11% | -3
O=C(CC(=O)N/N=C/c1ccccc1O)NCc1cccnc1 | -2.2% | 5% | 1% | 6
CNC(=S)NCCCc1ccccc1 | -1.4% | 20% | 1% | 2
O=C(/C=C/N1CCOCC1)c1cc2ccccc2o1 | 0.0% | 2% | -33% | -1
O=C(Nc1ccc(N2CCOCC2)c(Cl)c1)c1cccnc1 | -2.0% | 21% | -41% | -17
CC(C)Oc1cccc(C(=O)C2CCCN(Cc3cccn3-c3cccnc3)C2)c1 (centres undefined) | ? | 10% | 15% | -9
Cc1ccc(NC(=S)NNC(=S)NC2CCCCC2)cc1 | 4.4% | 3% | -19% | 2
Cc1onc(-c2ccccc2)c1C(=O)N1CCc2ccccc21 | -0.3% | -3% | 4% | 5
COc1ccc(Cl)cc1-c1nc(-c2ccc(NC(=O)c3cccs3)cc2)no1 | -0.5% | ? | -62% | -7
O=C(N/N=C/c1ccc(OCc2ccccc2)cc1)c1ccncc1 | -0.4% | -11% | -45% | 9
CCc1ccc(-c2nnn(Cc3nn[nH]n3)n2)cc1 | -2.2% | 9% | -10% | 2

Reformatted: entries from further up
SMILES	Rango-impB inh	Rango dissoc inh	miR-21 FLuc	GLA inh pH 4.5
Cc1onc(-c2ccccc2)c1C(=O)N1CCc2ccccc21	-0.3%	-3%	4%	5
COc1ccc(Cl)cc1-c1nc(-c2ccc(NC(=O)c3cccs3)cc2)no1	-0.5%	?	-62%	-7
O=C(N/N=C/c1ccc(OCc2ccccc2)cc1)c1ccncc1	-0.4%	-11%	-45%	9

Carrying on.
SMILES | Rango-impB inh | Rango dissoc inh | miR-21 FLuc | GLA inh pH 4.5
O=C(c1ccccc1)c1ccccc1C(=O)N1CCOCC1 | -2.9% | 13% | 1% | -4
CCOc1ccc(/C=C/C(=O)Oc2ccc(OC)cc2)cc1 | 2.1% | 12% | -2% | .
COc1ccc(/C=N/NC(=O)c2ccc3nc[nH]c3c2)c(OC)c1OC | -0.2% | 8% | 1% | 2
COc1ccc(S(=O)(=O)Nc2cc(S(=O)(=O)c3ccccc3)c(O)cc2C)cc1 | 1.7% | -1% | 0% | .
Cc1ccc(-c2nnc(SCC(N)=O)n2C)cc1 | -1.1% | 1% | -2% | 4
Cc1nn(CCC(=O)NNC(=S)Nc2ccc(F)cc2)c(C)c1Br | 6.4% | -8% | 1% | 7
CCOc1cc(/C=C2\NC(=O)NC2=O)cc([N+](=O)[O-])c1O | 0.7% | -15% | -11% | -5
CN(C)CCCn1c(SCc2ccc(Cl)cc2)nnc1-c1ccncc1 | -2.3% | -5% | -5% | .
Cc1ccc(C)c(C(=O)O/N=C(\N)c2ccc(Br)cc2)c1 | 2.3% | ? | -17% | -9
O=C(CCCOc1ccc(Cl)cc1Cl)N1CCCc2ccccc21 | -5.4% | 43% | -31% | -8

The last 7 compounds of the part above are carried over, then new ones follow:
SMILES | Rango-impB inh | Rango dissoc inh | miR-21 FLuc | GLA inh pH 4.5
COc1ccc(S(=O)(=O)Nc2cc(S(=O)(=O)c3ccccc3)c(O)cc2C)cc1 | 1.7% | -1% | 0% | .
Cc1ccc(-c2nnc(SCC(N)=O)n2C)cc1 | -1.1% | 1% | -2% | 4
Cc1nn(CCC(=O)NNC(=S)Nc2ccc(F)cc2)c(C)c1Br | 6.4% | -8% | 1% | 7
CCOc1cc(/C=C2\NC(=O)NC2=O)cc([N+](=O)[O-])c1O | 0.7% | -15% | -11% | -5
CN(C)CCCn1c(SCc2ccc(Cl)cc2)nnc1-c1ccncc1 | -2.3% | -5% | -5% | .
Cc1ccc(C)c(C(=O)O/N=C(\N)c2ccc(Br)cc2)c1 | 2.3% | ? | -17% | -9
O=C(CCCOc1ccc(Cl)cc1Cl)N1CCCc2ccccc21 | -5.4% | 43% | -31% | -8
COc1ccc(NC(=O)CNS(=O)(=O)c2ccc(Cl)cc2)cc1 | 2.2% | 0% | -34% | -4
N#Cc1c(N)c(C(=O)c2ccc(Cl)cc2)n2c1CCC2 | 3.7% | -2% | -3% | 2
Cc1occc1C(=O)NNC(=O)C1CCCCC1 | -1.6% | 7% | -9% | 6
COC(=O)c1ccc(C2NC(=O)CCC2[N+](=O)[O-])cc1 (centres undefined) | -1.9% | -8% | -1% | .
COc1cc(Cl)c(C)cc1NC(=O)CN(C)C1CCS(=O)(=O)C1 (centres undefined) | -2.5% | 26% | . | .
C=CCn1c(-c2ccc(OC)c(OC)c2)n[nH]c1=S | 4.0% | 17% | -18% | .
O=C(O)c1ccc(-n2cccn2)nc1 | -1.5% | 6% | 5% | -6
CCc1c(C)nc(SCC(=O)CC(=O)OC(C)C)c(C#N)c1C | ? | ? | -12% | -2
CCOC(=O)C(C)Sc1nc2ccccc2c(=O)n1CC (centres undefined) | 0.5% | 15% | -9% | 8
Cc1ccc(-c2nn(-c3ccccc3)cc2C(=O)N2CCN(c3ccccn3)CC2)cc1 | -0.2% | 9% | 3% | -2
Cc1ccc(S(=O)(=O)N2CCC(C(=O)O)CC2)cc1C(=O)O | -0.9% | 0% | 1% | -8
CS(=O)(=O)N(CC(=O)N1CCN(c2ccccc2)CC1)c1ccc(Cl)c(C(F)(F)F)c1 | 0.7% | 3% | 14% | -12
Cc1[nH]c2ccccc2c1C(=O)CN1CCN(C2CCCCC2)CC1 | . | . | -10% | 1
CCOC(=O)CSc1nc(C2CC2)nc2ccccc12 | 0.9% | -16% | 2% | 3
COC(=O)c1ccccc1NC(=O)c1cc2n(n1)C(C(F)F)CC(C(F)F)N2 (centres undefined) | -0.6% | -15% | -11% | 2
CC(C)NC(=O)c1cc2ccccc2o1 | -2.7% | -4% | -7% | 2
Cc1nn(C(C)C)c(C)c1CN1CCN(Cc2ccsc2)C(CCO)C1 (centres undefined) | 2.3% | 11% | 3% | -5
CC(NC(=O)C1=CC=CN2CCS(=O)(=O)N=C12)c1ccc(Cl)c(Cl)c1 (centres undefined) | 0.4% | 10% | . | .
COc1ccc(S(=O)(=O)c2c(C)c(NS(=O)(=O)c3ccccc3)cc(C)c2O)cc1 | 0.8% | -8% | 1%&12% | -1
COc1ccc(CCN(C)CCc2ccc(OC)c(OC)c2)cc1OC | 3.4% | 1% | . | 7&3
COC(=O)[C@]1(CC(C)C)N[C@H](c2ccc(-c3ccc(C(C)=O)cc3)cc2)[C@@H]2C(=O)N(C)C(=O)[C@@H]21 | -0.1% | 1% | . | .
O=C(COc1ccc(Br)cc1Cl)c1ccc[nH]1 | -0.2% | 0% | -50% | -15
O=C(CNC(=O)c1ccccc1Cl)NC1CCN(Cc2ccccc2)CC1 | ? | -22% | 0% | .
O=C(N1CCOCC1)C12CC3CC(C1)CC(C(=O)N1CCOCC1)(C3)C2 | -0.5% | 6% | 2% | -8

Not all compounds are listed; the hit share may differ from the screen's.
